DUX4 txn inh: inhibitors of DUX4-driven ZSCAN4 reporter expression, primary screen, 293T cells, Gaussia and Italica luciferase; activity change, negative = inhibition, % (test concentration not listed); 293T-iDUX4 ZSCAN4-Gaussia luciferase reporter, 24 h; active compounds read low; AID 1224904, 2016; 37,000 tested, 0.8% active;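 active = -10% or lower and over 25 points stronger than a control reporter; inconclusive = -10% or lower with a smaller gap; inactive = above -10%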;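 also: 0% = median of neutral control wells and -100% = median of positive control wells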
DUX4 txn inh difference: recorded beside DUX4 txn inh, whose call it bears; Gaussia minus Italica difference, %; measured here: selective DUX4 reporter inhibition;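 worked out from the two reporters; negative = selective loss of the DUX4 reporter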
DUX4 txn inh control: recorded beside DUX4 txn inh, whose call it bears; activity change, negative = inhibition, %; measured here: Italica tet-on control reporter;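 0 = neutral control and -100 = positive control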
The depositor's hits bear a star; ? = inconclusive; . = no result given; & = joins results of further samples. Some of the compounds tested; the hit share may differ from the screen's.

SMILES	DUX4 txn inh	DUX4 txn inh difference	DUX4 txn inh control
CO[C@H]1CN(C)C(=O)c2cc(NC(=O)CC(F)(F)F)ccc2OC[C@@H](C)N(S(=O)(=O)c2cn(C)cn2)C[C@H]1C	8.4	4.7	3.7
Cc1ccc(S(=O)(=O)N(C)C[C@@H]2Oc3ccc(NC(=O)Nc4ccc(C(F)(F)F)cc4)cc3CC(=O)N([C@H](C)CO)C[C@@H]2C)cc1	-0.6	-0.9	0.3
O=S(=O)(c1ccc(Cl)cc1)N1[C@@H]2CNC[C@H]1C2c1ccc(-c2cccnc2)cc1 (some centres not stated)	14.3&6.9	0.1&-19.4	14.2&26.4
C[C@H]1CCCCO[C@@H](CN(C)Cc2ccncc2)[C@@H](C)CN([C@@H](C)CO)C(=O)c2cc(NC(=O)Cc3ccccc3)ccc2O1	3.9	3.3	0.6
CS(=O)(=O)N1Cc2cc(C(=O)NCC3CC3)nc(-c3cccc(-c4cncnc4)c3)c2[C@@H]1CCO	-1.8	-2.6	0.8
CC(C)CC#Cc1ccc([C@@H]2[C@H](CO)N3C(=O)CN(C(=O)Nc4cc(F)ccc4F)C[C@@H]23)cc1	?	.	.
CC(=O)N1CCCCN2[C@@H](CO)[C@H](c3ccc(-c4ccccc4)cc3)[C@@H]2C1	13.5	1.4	12.1
Cc1cccc(-c2ccc([C@@H]3[C@@H](CO)N4C(=O)CN(C(=O)c5ccccc5)C[C@@H]34)cc2)c1	-7.9	-12.3	4.3
C[C@@H]1CCCCO[C@H](CN(C)C(=O)c2ccccc2)[C@@H](C)CN([C@H](C)CO)C(=O)c2cc(NS(=O)(=O)c3ccc(F)cc3)ccc2O1	2.0	14.8	-12.9
C[C@H](NC(=O)C[C@H]1C[C@@H]2c3cc(NC(=O)NC4CCCCC4)ccc3O[C@@H]2[C@H](CO)O1)c1ccccc1	7.0	-4.9	11.8
CCCC#Cc1cnc2c(c1)C(=O)N([C@H](C)CO)C[C@H](C)[C@@H](CN(C)Cc1ccccc1F)O2	-4.8	-3.9	-0.9
CCCNC(=O)N1C[C@@H]2[C@H](c3ccccc31)[C@H](CO)N2C(=O)c1ccccc1	-2.3	0.8	-3.1
N#Cc1ccc(-c2ccc([C@@H]3[C@@H](CO)N4C(=O)CN(C(=O)C5CCCCC5)C[C@@H]34)cc2)cc1	?	.	.
CO[C@@H]1CC[C@H]2CCN(C)C(=O)C[C@@H](c3ccccc3)CN(C)C(=O)c3cccc(C#N)c3OC[C@@H]1O2	1.8	-2.6	4.4
COCCNC(=O)C[C@@H]1C[C@H]2c3cc(NC(=O)c4ccc5c(c4)OCO5)ccc3O[C@H]2[C@H](CO)O1	1.4	2.2	-0.8
CCCN(C)C[C@H]1OCc2cnnn2CCCC(=O)N([C@@H](C)CO)C[C@@H]1C	-4.8	-6.1	1.3
COc1ccccc1NC(=O)N[C@H]1CC[C@@H](CCn2cc(-c3cccnc3)nn2)O[C@@H]1CO	-2.6	2.2	-4.9
O=C(C[C@H]1CC[C@H]2[C@@H](COC[C@H](O)CN2Cc2ccc(Oc3ccccc3)cc2)O1)N1CCOCC1	?	.	.
CN1CCN(C(=O)C[C@@H]2CC[C@@H]3[C@H](COC[C@H](O)CN3C(=O)Nc3ccc4c(c3)OCO4)O2)CC1	4.2	-9.6	13.7
CN1CCCCN2[C@H](C1)[C@H](c1ccc(C#CC3(O)CCCC3)cc1)[C@@H]2CO	-2.8	-0.4	-2.5
N#C[C@H]1[C@@H](c2ccccc2)[C@@H](CO)N1C(=O)C1CCCC1	-1.9	-4.0	2.0
O=C(C1CCC1)N1CC2(C1)[C@H](c1ccccc1)[C@H](CO)N2Cc1ccccc1F	-7.2	-10.0	2.9
O=C(Cc1ccccc1)N1CC[C@H]2[C@H](CO)Nc3ccc(C4=CCCCC4)cc3[C@H]21	?	.	.
C[C@@H](NC(=O)[C@@H]1[C@@H](CO)[C@@H]2Cn3c(ccc(-c4cccc(F)c4)c3=O)[C@@H]2N1C)c1ccccc1	-5.9	-2.2	-3.6
COc1cccc(NC(=O)N2CC3(C2)[C@H](c2ccccc2)[C@H](CO)N3C(=O)C2CCC2)c1	-5.0	-6.5	1.5
COc1cccc(S(=O)(=O)N2CC3(CCN(C)CC3)c3c(n(C)c4cc(OC)ccc34)[C@@H]2CO)c1	?	.	.
CN1C[C@@H]2[C@H](c3ccccc31)[C@H](CO)N2C(=O)Nc1ccc(F)cc1	3.8	1.6	2.2
COc1ccccc1NC(=O)N1C[C@H](O)COC[C@@H]2O[C@H](CC(=O)NCc3ccccc3)CC[C@H]21	5.2	9.9	-4.7
O=C(C[C@@H]1CC[C@H]2[C@@H](COC[C@H](O)CN2CC2CCOCC2)O1)NCC1CCCCC1	2.5	5.3	-2.8
Cc1noc(C)c1NC(=O)Nc1ccc2c(c1)CC(=O)N([C@H](C)CO)C[C@@H](C)[C@H](CN(C)C(=O)NC1CCCCC1)O2	-3.9	-6.7	2.9
C[C@@H]1CN([C@H](C)CO)C(=O)c2cc(NC(=O)Nc3cccc4ccccc34)ccc2O[C@@H](C)CCCCO[C@H]1CN(C)C(=O)NC1CCCCC1	-4.5	-7.0	2.5
COCC(=O)N1CC(=O)N2[C@@H](CO)[C@@H](c3ccc(C#Cc4cccc(OC)c4)cc3)[C@@H]2C1	-0.6	-1.5	0.9
O=C(Cc1ccncc1)NCC[C@@H]1CC[C@@H](NC(=O)Nc2cccc(F)c2)[C@@H](CO)O1	2.1	0.1	2.1
COCC(=O)N1[C@@H]2Cn3c(ccc(/C=C/c4ccccc4)c3=O)[C@H]1[C@@H](C(=O)N1CCOCC1)[C@@H]2CO	-0.3	-8.4	8.1
CS(=O)(=O)Nc1ccc2c(c1)[C@H]1C[C@H](CC(=O)NCCN3CCCCC3)O[C@@H](CO)[C@H]1O2	3.8	2.6	1.2
C/C=C/c1ccc([C@H]2[C@@H](CO)N3CCCCN(C(=O)Nc4cc(F)ccc4F)C[C@H]23)cc1	?	.	.
COc1ccc([C@H]2CC=CC[C@@H](C)Oc3ccccc3C(=O)N(C)[C@H](C(C)C)C(=O)N2)c(OC)c1 (mixture of isomers)	-9.0	-3.6	-5.4
O=C(C[C@@H]1C[C@@H]2c3cc(NC(=O)CC4CC4)ccc3O[C@@H]2[C@H](CO)O1)NCc1ccncc1	6.2	8.4	-2.3
C[C@@H]1CN([C@H](C)CO)C(=O)c2ccccc2-c2ccccc2CO[C@@H]1CN(C)Cc1ccc2c(c1)OCO2	-9.8	-6.9	-2.9
COc1ccc(S(=O)(=O)N(C)C[C@@H]2Oc3c(NC(=O)c4nc5ccccc5s4)cccc3C(=O)N([C@H](C)CO)C[C@H]2C)cc1	-6.9	-10.9	4.0

A run of entries of the results above, for reference:
SMILES	DUX4 txn inh	DUX4 txn inh difference	DUX4 txn inh control
N#C[C@H]1[C@@H](c2ccccc2)[C@@H](CO)N1C(=O)C1CCCC1	-1.9	-4.0	2.0
O=C(C1CCC1)N1CC2(C1)[C@H](c1ccccc1)[C@H](CO)N2Cc1ccccc1F	-7.2	-10.0	2.9
O=C(Cc1ccccc1)N1CC[C@H]2[C@H](CO)Nc3ccc(C4=CCCCC4)cc3[C@H]21	?	.	.
C[C@@H](NC(=O)[C@@H]1[C@@H](CO)[C@@H]2Cn3c(ccc(-c4cccc(F)c4)c3=O)[C@@H]2N1C)c1ccccc1	-5.9	-2.2	-3.6
COc1cccc(NC(=O)N2CC3(C2)[C@H](c2ccccc2)[C@H](CO)N3C(=O)C2CCC2)c1	-5.0	-6.5	1.5

Continued.
SMILES	DUX4 txn inh	DUX4 txn inh difference	DUX4 txn inh control
O=C(c1ccncc1)N1C[C@@H]2[C@H](c3ccccc31)[C@H](CO)N2C(=O)CN1CCOCC1	0.6	-0.7	1.3
CN1C(=O)c2cc(NC(=O)Nc3ccccc3F)ccc2OC[C@H]2O[C@@H](CC(=O)Nc3cccc(Cl)c3)CC[C@@H]21	2.0	0.2	1.8
C[C@H](CO)N1C[C@H](C)[C@H](CN(C)Cc2cccnc2)Oc2cc(/C=C/c3ccccc3)ccc2S1(=O)=O	2.5	4.2	-1.7
CCNC(=O)C[C@@H]1CC[C@@H]2[C@@H](COc3ccc(NC(=O)c4ccc(F)c(F)c4)cc3C(=O)N2C)O1	-1.6	-2.8	1.2
CN(C)C(=O)[C@@H]1[C@@H](CO)[C@@H]2Cn3c(ccc(C4=CCCC4)c3=O)[C@@H]2N1Cc1ccccn1	0.5	2.5	-2.0
O=C(C[C@@H]1CC[C@H](NC(=O)Nc2ccccc2F)[C@@H](CO)O1)NCc1ccc(Cl)cc1	7.9	2.1	5.8
O=C(C[C@H]1CC[C@@H]2[C@H](COC[C@H](O)CN2C(=O)c2ccccc2)O1)NCc1cccc(F)c1	19.1	6.8	12.3
COc1ccc2c3c([nH]c2c1)[C@H](CO)NCC31CCN(C(=O)Nc2ccc3c(c2)OCO3)CC1	-0.3	5.1	-5.5
O=C(C1CC1)N1CCCCN2[C@@H](CO)[C@H](c3ccc(C#CC4CCCC4)cc3)[C@@H]2C1	-10.0	-18.2	8.2
CN(C)C(=O)c1cccc(-c2ccc3c(c2)[C@@H]2[C@@H](CCN2C(=O)c2ccc(F)cc2)[C@H](CO)N3C)c1	?	.	.
C[C@H]1CN([C@@H](C)CO)C(=O)c2cccc(NC(=O)C3CCOCC3)c2O[C@H]1CN(C)Cc1ccncc1	1.3	1.1	0.1
CCS(=O)(=O)N1CC2(C1)[C@H](c1ccccc1)[C@@H](CO)N2CC1CCCC1	0.1	-7.0	7.1
O=C(NCC(F)(F)F)[C@H]1[C@H](CO)[C@H]2Cn3c(cccc3=O)[C@@H]1N2C(=O)C1CC1	3.1	-1.2	4.2
CCS(=O)(=O)N1CCCCN2[C@H](CO)[C@@H](c3ccc(C#CC(C)(C)O)cc3)[C@@H]2C1	5.9	9.6	-3.7
C[C@H](CO)N1C[C@H](C)[C@@H](CN(C)C(=O)Nc2cccc3ccccc23)Oc2ccc(NC(=O)CCC(F)(F)F)cc2CC1=O	-8.7	-1.3	-7.4
CCC(=O)N1[C@@H](CO)[C@@H]2c3ccccc3N(C(=O)Nc3ccc(Cl)cc3)C[C@@H]21	-1.1	0.4	-1.5
CCCNC(=O)[C@@H]1[C@@H](CO)[C@@H]2Cn3c(cccc3=O)[C@H]1N2S(=O)(=O)c1ccccc1F	1.8	1.7	0.1
N#C[C@H]1[C@H](c2ccc(-c3cccnc3)cc2)[C@@H](CO)N1C(=O)C1CCOCC1	3.7	5.2	-1.5
COc1ccc2c3c(n(C)c2c1)[C@H](CO)N(Cc1ccccc1)CC31CN(CC2CC2)C1	?	.	.
COc1ccc2c3c(n(C)c2c1)[C@H](CO)N(C(=O)Nc1ccccc1F)CC31CCN(C)CC1	-3.7	1.0	-4.7

Limited to DUX4 txn inh control, for some of the entries so far:
SMILES,DUX4 txn inh control
O=C(c1ccncc1)N1C[C@@H]2[C@H](c3ccccc31)[C@H](CO)N2C(=O)CN1CCOCC1,1.3
CN1C(=O)c2cc(NC(=O)Nc3ccccc3F)ccc2OC[C@H]2O[C@@H](CC(=O)Nc3cccc(Cl)c3)CC[C@@H]21,1.8

The results go on.
SMILES	DUX4 txn inh	DUX4 txn inh difference	DUX4 txn inh control
COc1ccc(S(=O)(=O)Nc2ccc3c(c2)C(=O)N([C@@H](C)CO)C[C@H](C)[C@@H](CN(C)C(=O)Nc2cccc4ccccc24)OCCCC[C@H](C)O3)cc1	-5.2	-2.2	-3.1
O=C(NC[C@H]1[C@H](c2ccccc2)[C@H](CO)N1Cc1cccnc1)c1ccccn1	-1.3	-0.3	-1.0
O=C(C[C@@H]1CC[C@H]2[C@@H](COC[C@H](O)CN2Cc2cccc(Cl)c2)O1)Nc1nccs1	?	.	.
CCC(=O)N1[C@H](CO)[C@H]2c3ccccc3N(C(=O)c3cnccn3)C[C@H]21	4.4	1.4	3.0
O=C(NC1CCCC1)[C@H]1[C@H](CO)[C@H]2Cn3c(cccc3=O)[C@H]2N1CCc1ccccc1	9.4	17.9	-8.6
COCC(=O)N1[C@@H](CO)[C@@H]2c3ccccc3N(C(=O)c3cccc(OC)c3)C[C@@H]21	4.8	5.0	-0.2
N#C[C@H]1[C@@H](c2ccccc2-c2ccccc2F)[C@@H](CO)N1C(=O)Cc1ccccc1	?	.	.
Cc1noc(C)c1NC(=O)Nc1cccc2c1O[C@@H](CN(C)C(=O)Nc1ccc3c(c1)OCO3)[C@H](C)CN([C@@H](C)CO)C2=O	-0.3	1.0	-1.3
COC(=O)C[C@H]1CC[C@@H]2[C@H](COc3ccc(NC(=O)c4ccc(OC)cc4)cc3C(=O)N2C)O1	-0.4	-1.6	1.2
CN(C)C(=O)C[C@@H]1C[C@@H]2c3cc(NC(=O)c4cccnc4)ccc3O[C@@H]2[C@@H](CO)O1	9.4	-1.0	10.3
O=C(NC1CCCCC1)N1C[C@@H]2N[C@H](C1)C2c1ccc(-c2cccc(F)c2)cc1 (some centres not stated)	?	.	.
COc1ccc(CN(C)C[C@@H]2Oc3ccc(NC(=O)Nc4ccc5c(c4)OCO5)cc3CC(=O)N([C@@H](C)CO)C[C@@H]2C)cc1	2.0	0.1	1.8
C[C@H](CO)N1C[C@H](C)[C@@H](CN(C)CC2CCCCC2)Oc2ccc(NC(=O)c3ccncc3)cc2C1=O	-1.1	-7.2	6.1
Cc1ccc(S(=O)(=O)N2C[C@@H](O)COC[C@H]3O[C@H](CC(=O)NCCN4CCCCC4)CC[C@@H]32)cc1	3.6	2.5	1.1
C[C@@H]1CN([C@H](C)CO)C(=O)c2cc(N(C)C)ccc2O[C@H]1CN(C)CC1CCCCC1	-2.3	-4.0	1.7
CO[C@@H]1CN(C)C(=O)c2ccc(NC(=O)Nc3ccc(Cl)cc3)cc2OC[C@H](C)N(C(=O)Nc2c(C)noc2C)C[C@@H]1C	-7.9	-6.5	-1.4
CCCN1C[C@H](C)[C@@H](OC)CN(C)C(=O)c2ccc(NC(=O)c3ccc(F)cc3)cc2OC[C@H]1C	-2.5	-1.4	-1.0
CCN(C[C@H]1[C@H](c2ccccc2)[C@H](CO)N1CC1CC1)C(=O)c1ccccn1	-1.5	0.6	-2.1

Assay outcomes from PubChem.
